High-throughput results (PubChem BioAssay)
ClpP mod: qHTS Assay for Activators of ClpP | ATP-dependent Clp protease proteolytic subunit (Bacillus subtilis (strain 168)), P80244 | purified B. subtilis ClpP, FRET peptide cleavage, 20 min | Potency, µM (doses to about 57.5 µM), for the others: top-dose activity change, negative = active | 1.9% of 340,000 active; active = well fitted falling curve with a large enough effect; inconclusive = small, poorly fitted or top-dose-only effect; inactive = no such curve, though single readings can be large or run the other way; also: potency is read from the fitted curve at half-maximal effect; the source files actives as falling curves though it sought activators and does not explain the sign; nearly all actives have a fitted effect of over 65% in size; many hits overshoot -100%
Target sequence (P80244 whole entry, looked up): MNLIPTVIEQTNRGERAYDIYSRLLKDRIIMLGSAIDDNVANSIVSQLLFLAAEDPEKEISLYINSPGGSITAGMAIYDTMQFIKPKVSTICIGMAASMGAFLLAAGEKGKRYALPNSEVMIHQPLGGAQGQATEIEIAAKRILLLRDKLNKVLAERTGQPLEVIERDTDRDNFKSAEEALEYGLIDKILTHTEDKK
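FRET quenching reversal measured ClpP activation: 10 microg/mL B. subtilis ClpP at pH 8 with the FRET-FV decapeptide, read at 430 nm after 320 nm excitation. The 20-min minus 0-min signal was scaled between DMSO/no-enzyme wells and ADEP (5.8 microM final).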
Sfp PPTase inh: Sfp phosphopantetheinyl transferase inhibition; Q9F4F7; Biochemical Sfp PPTase activity, qHTS; Potency, µM, for inactives: max response, negative = inhibition, most hits filed as inhibitors; 3.5% of 310,000 active; active = well fitted inhibition curve with a large enough effect; inconclusive = small, poorly fitted or top-dose-only effect, or another doubt; inactive = no such curve, though single readings can be large or run the other way;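 also: the enzyme is Sfp with the accession as filed and its product quenches rhodamine fluorescence; potency is read from the fitted curve at half-maximal effect; 0% = enzyme reaction without inhibitor and -100% = no enzyme wells; top concentration of the series not given in the record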
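Buffer: 50 mM Hepes-Na pH 7.6, 10 mM MgCl2, 0.01% Nonidet P-40, 0.01% BSA. Enzyme 15 nM, pre-exposed to compound 15 min; substrates then added and fluorescence change tracked over 30 min.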
TRPML1 agonist: activates the human TRPML1 channel. AID 624414. activation, % (no concentration beside the values). TRPML1-expressing cells, Ca2+ dye fluorescence, FDSS; host cell line not named in the record; reference of the full effect not given here. 0.12% of 410,000 active; in the data active = activation above about 50%; inconclusive = about 30% to 50%; inactive = below about 30%; also: 0% is about no effect; the text of the record puts the active cut at 80%
Target sequence (Q9GZU1 whole entry, looked up): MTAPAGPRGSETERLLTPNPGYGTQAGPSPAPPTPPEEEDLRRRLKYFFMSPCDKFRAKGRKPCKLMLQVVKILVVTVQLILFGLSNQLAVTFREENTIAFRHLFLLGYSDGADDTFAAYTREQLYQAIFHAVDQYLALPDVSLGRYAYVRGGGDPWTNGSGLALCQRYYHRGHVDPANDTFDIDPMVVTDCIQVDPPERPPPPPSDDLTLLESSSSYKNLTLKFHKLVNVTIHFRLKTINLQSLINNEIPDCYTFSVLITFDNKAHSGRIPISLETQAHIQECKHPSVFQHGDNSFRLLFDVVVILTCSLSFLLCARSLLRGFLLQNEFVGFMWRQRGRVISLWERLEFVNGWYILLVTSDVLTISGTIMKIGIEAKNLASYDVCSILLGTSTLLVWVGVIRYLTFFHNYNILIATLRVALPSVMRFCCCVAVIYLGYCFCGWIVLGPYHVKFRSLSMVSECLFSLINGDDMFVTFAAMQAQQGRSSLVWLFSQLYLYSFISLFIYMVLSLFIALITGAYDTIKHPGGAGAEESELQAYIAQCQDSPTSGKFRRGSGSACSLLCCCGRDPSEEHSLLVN
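Calcium fluorescence on an FDSS kinetic reader gave the read-out. Tet-induced TRPML1-DL cells were plated overnight, dye-loaded (Ca8 with quencher, 45-90 min, room temperature, dark), then read 110 s after compound addition, and again 110 s after 4uM final 54-4 (EC80).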
PINK1 modulator: modulators of PINK1 expression; PINK1 immunofluorescence, high-content cytometry, 24 h; Potency, µM (doses to about 76.6 µM), inactives show at the highest dose activation (PINK1 increase), usual class: activators; 0.2% of 410,000 active; AID 624263; active = well fitted activation curve with a large enough effect; inconclusive = small, poorly fitted or top-dose-only effect; inactive = flat fitted curve, though single readings scatter; cell line not stated here;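 also: potency is read from the fitted curve at half-maximal effect; % of control where 0% means no effect; nearly all actives have a fitted effect of over 65% in size; a mitochondrial uncoupler was the plate control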
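Stable cell line, 250 cells/well, 12 h attachment; compounds pinned at 5 concentrations, 24 h; CCCP control. Fixed with nuclear dye, primary antibodies 12 h at 10 degrees C, secondary plus cell stain; laser-scanning cytometer read.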
TRPV1 PAM: human TRPV1 potentiation; Q8NER1; TRPV1-expressing cells, Fluo-8 calcium influx, capsaicin EC20 potentiation; host cell line not named in the record; control for the full effect not named in the record; AID 540277; 0.02% of 320,000 active; potentiation, % at 8.33 µM; active means potentiation above 80%; inconclusive means 30% to 80%; inactive means below 30%; also: 0% is about no effect
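TRPV1-expressing cells were cultured overnight at 35.5C and loaded with Fluo-8 calcium dye for 40 to 90 min at room temperature. After a 10 s baseline, compound was added and calcium influx was read kinetically for 3 min (ex 480/em 520 nm).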
TRPML1 blocker: human mucolipin-1 channel inhibition; AID 624415; activity change, negative = inhibition, % (no concentration beside the values); Q9GZU1; 0.02% of 390,000 active; TRPML1-inducible cells, Ca2+ dye fluorescence, FDSS; stronger effect = lower value; inhibition of EC80 agonist-evoked calcium signal; in the data active means activity change below about -50%; inconclusive means about -30% to -50%; inactive means above about -30%;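 also: stimulus is agonist 54-4 at its EC80 concentration; % is scaled to controls: 0 for no effect and ±100 for the full control effect; compound concentration not given in the record; the text of the record puts the active cut at -80%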
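Tet-induced TRPML1-DL cells loaded with Ca8 no-wash calcium dye were read kinetically on FDSS. Compound addition was followed by EC80 agonist 54-4 (4 uM final); inhibition was read over 110 s.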
Menin MLL FP FL: displaces fluorescein MLL peptide from human menin; Fluorescence polarization, fluorescein-MLL peptide displacement from menin; FP activity change, % at 61.4 µM; 290,000 tested, under 10 active; inconclusive = falling polarisation curve, or a change in total fluorescence; inactive = total fluorescence flat and polarisation flat or rising; no compound was filed as active; the % refers to the polarisation; negative = inhibition;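 also: % of control where 0% means no effect; inhibitors lower the polarisation; unlabelled MLL peptide was the positive control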
Active calls of the source: *; ? = inconclusive; / = no result given; & = joins results of further samples.

SMILES	Menin MLL FP FL	PINK1 modulator	Sfp PPTase inh	TRPV1 PAM	TRPML1 blocker	ClpP mod	TRPML1 agonist
Clc1ccccc1-c1nc2ccccc2c2nc3ccccc3n12	0.7	0.6%	-3%	-11	5	-18%	0.7
O=C(NC(C(=O)c1ccccc1)N1CCCCC1)c1ccccc1 (configuration not stated)	0.0	0.2%	-1%	4	-6	0.8%	0.2
Fc1ccc2nc(Nc3nc4cc5c(cc4s3)OCO5)sc2c1	2.7	8.6%	-6%	1	-10	?	-0.8
CCOC(=O)C1=CC[C@H]2c3c(c4ccccc4n3C)C(=O)C1N2C(=O)OC(C)(C)C	/	0.4%	/	-9	6	1.1%	-0.7
Cc1cc(C)nc(NC2=NCC(=O)N2c2ccc(F)c(Cl)c2)n1	0.6	-1.2%	15%	-2	4	1.2%	0.4
c1ccc(C2CSc3ccccc3N2)cc1 (configuration not stated)	17	1.1%	56µM*	11	14	-14%	3.1
O=C1CCCCC1Sc1nnc(Cc2cccs2)n1CCc1ccccc1 (configuration not stated)	2.7	-1.9%	-14%	-4	5	0.0%	3.9
O=C(/C=C/c1c(Cl)cccc1Cl)N1CCN(c2ncccn2)CC1	2.7	-0.3%	-16%	-10	-15	-5.8%	2.0
O=C(O)CN1C(=O)/C(=C\c2cccc(OCc3ccccc3)c2)SC1=S	2.5	0.8%	6%	2	-2	-1.1%	-0.9
COc1ccc(N(CC(=O)NCc2ccc(F)cc2)C(=O)c2snc(C(N)=O)c2N)cc1OC	-9.0	15%	5%	-2	6	-1.3%	-0.6
COc1ccc(CCn2c(=S)[nH]c3ccc(N4CCOCC4)cc3c2=O)cc1OC	-0.7	3.9%	-12%	1	14	-12%	0.0
Cc1cnc(NC(=O)C(C)N2C(=O)C3CC=CCC3C2=O)s1 (configuration not stated)	1.6	0.0%	6%	10	3	-1.9%	-1.2
C=CCOc1ccc(C2C(C#N)=C(N)N(Nc3ccccc3)C3=C2C(=O)CC(C)(C)C3)cc1OC (configuration not stated)	5.3	4.9%	5%	-26	0	-13%	-0.5
NS(=O)(=O)c1ccc(NCc2cc(Cl)ccc2OCc2ccc(F)cc2)cc1	3.3	?	-4%	12	11	0.9%	0.6
CCCn1c(C)nnc1SCC(=O)NC1CCCCC1	0.1	-0.4%	22%	2	-13	-0.1%	-0.3
Cc1cc(/C=C2/C(=N)N3C(=NC2=O)SN=C3S(C)(=O)=O)c(C)n1-c1ccccc1F	15	-1.5%	-4%	-7	4	/	0.2
O=[N+]([O-])c1ccc(SCCO)nc1SCCO	-1.4	-0.4%	17%	6	0	/	0.3
COc1ccc2c(c1)C(C)CC(C)(C)N2C(=O)NC1CCCCC1 (configuration not stated)	1.6	1.1%	-1%	3	-20	/	-0.5
COCCOC(=O)c1cc(C(=O)c2cc(F)ccc2O)coc1=N	?	1.6%	2%	6	0	16µM*	3.8
Cc1ccc(S(=O)(=O)N2CC=C(C(=O)NCCC(C)C)CC2)cc1	-0.8	0.8%	7%	4	-8	/	-0.8
COc1ccccc1-c1nc(SCC(=O)O)n[nH]1	-7.6	3.3%	20%	-7	-4	-2.6%	-0.3
O=C1C(Cl)=C(NC(=O)c2ccccc2)C(=O)C(Cl)=C1NC(=O)c1ccccc1	/	1.5%	0.89µM*	6	-2	-2.7%	-0.5
CCN(CC)C(=O)C1=C(C)Nc2ncnn2C1c1cccnc1 (configuration not stated)	-1.9	-0.8%	-1%	0	-6	1.7%	0.1
COc1cc(NS(=O)(=O)c2ccc(N/C=C(\C=O)c3nc4ccccc4o3)cc2)nc(OC)n1	11	-0.3%	9%	5	16	0.0%	-0.2
COc1ccccc1OCCOC(=O)Nc1ccccc1	9.1	-0.1%	-1%	12	-6	-5.4%	-1.1
CC(C)(C)C1CCC(=O)N2CCC[C@]2(c2ccccc2)C1 (some centres not stated)	/	-0.5%	/	/	/	0.5%	-0.7
COc1ccc2cc(C(=O)NCCO)sc(=O)c2c1OC	2.5	1.3%	17%	2	-3	-8.4%	-0.1
O=c1[nH]cnc2cc(Cl)ccc12	-1.3	-1.3%	11%	-2	2	-2.7%	-0.3
Cc1ccccc1CN1C(=O)c2ccccc2Sc2ccc(C(=O)N3CCCC3)cc21	/	-0.3%	/	/	7	-2.2%	3.3
Cc1ccc(C)c(N2CCN(C(=O)CCCCCn3c(=O)[nH]c4ccccc4c3=O)CC2)c1	/	0.5%	/	/	0	?	-0.6
O=C(CCC(=O)c1ccc(Br)cc1)Nc1cccc(C(F)(F)F)c1	8.3	0.2%	7%	2	6	-1.0%	1.5
Cn1c(=O)c2c(nc(Cl)n2Cc2ccc(Cl)c(Cl)c2)n(C)c1=O	0.9	-1.2%	3%	16	-9	-1.8%	-0.3
COc1cccc2[nH]c3c(Cl)ncnc3c12	-2.0	6.5%	2%	3	-7	16µM*	-0.7
Cc1ccc(N2C(=O)CC(N3CCN(c4ccccn4)CC3)C2=O)cc1 (configuration not stated)	0.5	-1.6%	3%	-12	24	-0.6%	0.9
CC1CCN(S(=O)(=O)c2ccc(NC(=O)C3CCN(C(=O)c4ccco4)CC3)cc2)CC1	1.3	1.6%	8%	-7	3	/	-0.5
COc1ccc(C(OC(=O)c2ccco2)C(=O)NCc2ccc(C)cc2)cc1 (configuration not stated)	-2.8	-2.0%	-20%	1	0	-2.0%	1.5
O=C(Nn1cnnc1)c1cc(-c2cccc(Br)c2)nc2ccccc12	1.9	1.3%	18%	25	/	-11%	/
CN(C(=O)COC(=O)c1nn(C)c(=O)c2ccccc12)c1c(N)n(Cc2ccccc2)c(=O)[nH]c1=O	/	4.5%	/	-10	12	-1.1%	0.1
CCNc1nc(CSc2ccccc2)nc2sc(C)c(C)c12	4.5	?	?	-5	63	1.1%	2.6
N#Cc1ccccc1NC(=O)COC(=O)/C=C/c1ccc(S(=O)(=O)N2CCOCC2)cc1	/	-1.0%	/	/	4	-2.2%	-0.1
Cn1cc(C(=O)c2ccc(Cl)cc2)cc1-c1nc2ccccc2n1C	3.2	-0.3%	12%	7	63	-12%	0.4
CC(C)c1ccc(-c2noc(SCC(=O)N3CCN(c4ccccc4F)CC3)n2)cc1	/	3.3%	/	/	25	0.2%	1.7
Cc1ccc(C)c(N2CCN(C(=O)CCS(=O)(=O)c3ccc4c(c3)NC(=O)C(C)S4)CC2)c1 (configuration not stated)	/	3.8%	2%	-6	13	-5.8%	1.4
Cc1nnc(SCc2cc(=O)[nH]c(/N=C(\N)Nc3ccccc3Sc3ccccc3)n2)s1	-3.1	1.0%	11%	6	-1	0.1%	0.0
CCN(CC(=O)Nc1ccc2c(c1)OCCO2)CC(=O)Nc1ccc(C)c(S(=O)(=O)N(C)C)c1	/	1.1%	/	/	3	-0.6%	0.5
O=c1oc2cc(O)ccc2cc1S(=O)(=O)c1ccccc1	-3.5	0.3%	6%	26	-10	4.6%	-0.8
CC(NC(=O)c1ccco1)C(=O)OC(C)C(=O)NCc1ccccc1 (configuration not stated)	0.9	-0.7%	15%	-6	9	/	-0.4
CC(=O)Nc1ccc(S(=O)(=O)N2CCCC2)cc1	0.0	1.1%	28%	?	/	0.8%	/
O=C(Nc1cccc(-c2cn3ccccc3n2)c1)c1cccc(Cl)c1	4.1	-2.8%	-12%	8	7	-14%	-0.7
COc1ccc(C(=O)NCC(c2ccccc2)N2CCCC2)cc1S(=O)(=O)N1CCOCC1 (configuration not stated)	/	0.1%	/	4	-6	-4.6%	0.5
Cc1ccc(C(=O)NCCNS(=O)(=O)c2ccccc2[N+](=O)[O-])cc1	0.9	0.4%	14%	?	-4	/	-0.5
Cc1cc(OCCCC(=O)N2CCCCC2)cc(C)c1Cl	4.7	14%	-20%	-14	8	-4.0%	0.6
Cc1cc(C(=O)OC(C)C(=O)Nc2cccc(S(=O)(=O)N3CCOCC3)c2)c(C)o1 (configuration not stated)	-2.7	-0.5%	8%	7	2	-0.5%	-1.2
CCC1=C(OC(=O)N(CC)CC)N2C(=O)OC(=NCCOC)[C@]2(Cc2ccccc2)[C@H]2C1=CC[C@H]1C(=O)N(CC)C(=O)[C@H]12	-8.6&-0.6	1.0%	17%&14%	4	-8	-3.4%	0.2
COc1ccc(NC(=O)COC(=O)c2ccc(N3CCCC3=O)cc2)cc1OC	0.4	-0.6%	2%	25	1	-1.1%	0.7
CCCc1cc(=O)[nH]c(SCC(=O)c2[nH]c(C)c(C(=O)OCC)c2C)n1	2.1	-3.4%	14%	-5	-3	3.7%	0.5
O=C(N/N=C/c1ccsc1)c1ccc2ccccc2n1	-2.5	2.3%	17%	-14	11	/	-0.7
CCc1ccc(NC(=O)CN(Cc2ccccc2)S(=O)(=O)c2ccc3nc(C)sc3c2)cc1	/	3.4%	/	/	64	1.3%	3.9
Cc1nc(-c2ccc(S(=O)(=O)Nc3ccc(OC(F)(F)F)cc3)cc2)co1	/	1.1%	/	/	3	2.3%	0.5
O=C(NCCN1CCOCC1)c1ccc(CSCc2cccc(Cl)c2)o1	1.4	4.5%	-17%	-5	-3	-0.1%	0.0

Next part.
SMILES	Menin MLL FP FL	PINK1 modulator	Sfp PPTase inh	TRPV1 PAM	TRPML1 blocker	ClpP mod	TRPML1 agonist
CCOC(=O)C1CCN(C(=O)C(=O)c2cn(CC(=O)N3CCCCCC3)c3ccccc23)CC1	/	3.5%	8%	3	-14	-1.5%	0.7
Cc1nc2nc(N)nc(OCc3ccccc3)c2nc1C	/	4.3%	/	/	-9	/	0.0
CCCc1c(C)nc2c(OC)cccc2c1SCC(=O)O	1.6	-0.6%	16%	9	10	0.5%	0.4
COC(=O)C1CCN(S(=O)(=O)c2c(C)n(C)c(=O)n(C)c2=O)CC1	0.6	0.5%	13%	4	-9	-0.5%	-0.3
CCOc1ccccc1/C=N/Nc1nc2ccccc2o1	/	-0.1%	11%	0	-2	/	-0.7
